VDR inh: blocks the human vitamin D receptor; Potency, µM, for the others: max response, negative = inhibition, hits mostly inhibitors; hit rate 0.93% among 400,000; P11473; VDR-SRC2-3 peptide fluorescence polarization, 2 h; active means well fitted inhibition curve with a large enough effect; inconclusive means small, poorly fitted or top-dose-only effect, or another doubt; inactive means no such curve, though single readings can be large or run the other way; further: series mostly up to about 120 µM
Target sequence (P11473 whole entry, looked up): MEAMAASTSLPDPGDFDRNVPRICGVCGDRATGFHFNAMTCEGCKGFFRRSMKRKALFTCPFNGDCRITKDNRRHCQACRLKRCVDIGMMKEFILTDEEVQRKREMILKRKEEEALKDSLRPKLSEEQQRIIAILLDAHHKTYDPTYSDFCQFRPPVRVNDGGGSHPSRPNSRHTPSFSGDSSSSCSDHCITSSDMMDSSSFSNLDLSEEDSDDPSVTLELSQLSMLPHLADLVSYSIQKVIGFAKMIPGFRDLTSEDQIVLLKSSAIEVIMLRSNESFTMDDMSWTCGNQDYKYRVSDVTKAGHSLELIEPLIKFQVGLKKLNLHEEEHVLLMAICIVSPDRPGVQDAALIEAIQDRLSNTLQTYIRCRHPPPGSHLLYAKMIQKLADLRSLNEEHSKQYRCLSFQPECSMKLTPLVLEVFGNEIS
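Signal is fluorescence polarization, reporting how far test compounds block the interaction of VDR with the SRC2-3 coregulator peptide after a 2 h room-temperature incubation.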
The depositor's hits bear a star; ? = inconclusive; & = joins results of further samples. On the % scale 0 is the no-effect control and ±100 the full control effect; potency means the concentration at half of the fitted maximal effect.

SMILES	VDR inh
Cc1cc(Br)ccc1NC(=O)c1cc2c(s1)-c1ccccc1SC2	-10%
CCOC(=O)C1CCN(C(=O)c2ccc(OCC(=O)Nc3ccc(OCC)cc3)c(OC)c2)CC1	-6%
CCOc1ccc(C(=O)NCC(=O)NCC(c2ccc(OC)cc2)N2CCCC2)cc1 (stereo unspecified)	1%
C=COC(=O)/C=C/C	-2%
O=C(NCc1cccs1)c1ccc(S(=O)(=O)N2CCOCC2)cc1	-1%
COc1cc(/C=C2\NC(=S)N(C)C2=O)ccc1OCc1cccc(F)c1	-15%
CCc1nnc(NC(=O)CCCSc2nc3ccccc3[nH]2)s1	9%
Cc1cc(C)n2nc(SC(C)C(=O)N3CC(C)OC(C)C3)nc2n1 (stereo unspecified)	-15%
Cc1ccc(C(CNS(=O)(=O)c2ccccc2)N2CCN(C)CC2)cc1 (stereo unspecified)	6%
Cc1ccc(S(=O)(=O)ON2C(=O)c3cccc4cccc(c34)C2=O)cc1	1%
CCCC[C@H]1CCCO[C@@](C(=O)NCc2ccccc2)(C(F)(F)F)C1	?
CCCn1c(SCC(=O)N2CCCC2=O)nc2ccccc2c1=O	-22%
COc1cc(C2NC(=O)NC(C)=C2C(=O)OC2CCC(C)CC2)ccc1O (stereo unspecified)	-13%
COC(=O)CCC(=O)OC1(C)C(=O)C2=CN(c3ccc(OC)cc3)C(c3ccc(OC)cc3)=CC2=C(Br)C1=O (stereo unspecified)	?
Cc1ccnn1CC(=O)N/N=C/c1cn[nH]c1-c1ccccc1	1%
Cc1ccc(NC(=O)CN2CC(C)SC2=NC2CCCCC2)cc1 (stereo unspecified)	22%&-10%
COCCOc1nc2c(c(=O)n(C)c(=O)n2C)n1CCc1ccccc1	5%
CN(C)CCNC(=O)c1c(O)c2c([nH]c1=O)CCCC2	1%
CC1NC(=O)NC1CCCCCC(=O)Nc1ccc(F)cc1 (stereo unspecified)	-14%
COc1ccc2c(c1)CCC(C)N2S(=O)(=O)c1ccc(C2CNC(=O)C2)cc1 (stereo unspecified)	-12%
COc1ccc(-c2csc3ncn(-c4ccc(C)cc4)c(=O)c23)cc1OC	-2%
Cc1ccnc(SCc2cn3c(C)cccc3n2)n1	2%
O=C(Cn1nnc(-c2ccccc2)n1)N/N=C/c1ccc(-c2ccc(Cl)cc2)o1	5%
OCCNc1nc(Nc2ccccc2)nc(Nc2ccccc2)n1	-13%
CCN(CC)CCNC1=NCCn2c1cc1cc(OC)ccc12	6%
O=C(NCC1COc2ccccc2O1)c1c[nH]c2ccc(S(=O)(=O)N3CCOCC3)cc2c1=O (stereo unspecified)	0%
CCCN(CCC)C(=O)Cn1c(=O)n(-c2ccc(C)cc2)c(=O)c2ccc(C(=O)NCc3ccccc3Cl)cc21	12%
COc1cccc(CNC(=O)COC(=O)CNC(=O)c2ccc(-c3ccccc3)cc2)c1	12%
C=CCOc1ccc(/C=N/O)cc1Cl	-16%
N/C(COc1ccc(Cl)cc1)=N\NS(=O)(=O)c1ccccc1	10%
NC(=S)NN=C1c2cc(Cl)ccc2-c2c1cc(Cl)cc2[N+](=O)[O-]	-23%
S=c1[nH]c2ccccc2n1CCc1ccncc1	2%
Cn1c(SCC(=O)NC2CCCCC2)nnc1-c1ccccc1O	14%
COc1ccc(NC(=O)/C=C/c2ccc(C)o2)cc1S(=O)(=O)N1CCOCC1	-21%
CCOC(=O)COc1ccc(S(=O)(=O)NC2CC2)cc1	-25%
Cc1ccc(NNC(=O)c2cc(C(C)(C)C)nn2Cc2ccccc2)cc1	-17%
O=C(O)CCCC(=O)N1CCN(c2cccc(Cl)c2)CC1	4%
CCc1nc2ccc(C(=O)NCc3ccc(C)o3)cc2nc1CC	-5%
COc1ccc(C2CC(c3ccccc3)=NN2C(=O)COC(=O)c2nc3nc(C)cc(C)n3n2)cc1 (stereo unspecified)	6%
COC(=O)c1sccc1NC(=O)CSCCc1ccccn1	5%
CC(C)CN(C[C@@H](O)[C@H](Cc1ccccc1)NC(=O)O[C@H]1CCOC1)S(=O)(=O)c1ccc(N)cc1	-3%
CC(=O)Nc1ccc(C(=O)OCC(=O)N2CCCC2)cc1	9%
C/C(Cc1ccccc1)=N\NC(=O)CNC(=O)Cc1ccccc1	-1%
Cc1cccc(-n2ncc3c2CCCC3NC(=O)C2(C(N)=O)CC2)c1C (stereo unspecified)	5%
Cc1ccc(S(=O)(=O)c2cn(Cc3ccccc3Cl)c3ccc(F)cc3c2=O)cc1	-11%
COc1cc(CCC(=O)OCC(=O)Nc2cccc(S(=O)(=O)N(C)C)c2)cc(OC)c1OC	-10%
O=S(=O)(c1ccccc1)N1CCC[C@@]2(CCN(c3ccccc3)C2)C1	32µM*
CC(=O)N1CCc2cc(CNS(=O)(=O)c3ccc(F)cc3)ccc21	6%
COCCN(C(=O)Cc1cccs1)c1nnc(-c2cccnc2)s1	-7%
O=S(=O)(Cc1ccc(Cl)cc1)N1CCCCCC1	7%
COc1cccc(-c2nc(CS(=O)(=O)CC(=O)NC3CC3)c(C)o2)c1	5%
Cc1oc(C(C)(C)C)cc1C(=O)N1CCN(C(c2ccccc2)c2ccccc2)CC1	18%
Cc1ccccc1-c1cc2nc(C)c(C)c(=O)n2[nH]1	10%
O=C(COC(=O)c1ccc(N2CCCC2=O)cc1)Nc1ccccc1	5%
c1ccc(CSC2=NNC(c3ccccn3)S2)cc1 (stereo unspecified)	12%
COc1ccccc1-c1cc(C(=O)Nc2cccnc2)no1	-12%
CNC(=O)c1ccc(-n2nc(C)cc2-c2ccccc2)cc1	6%
O=C(Nc1ccccc1C(F)(F)F)c1ncn[nH]1	21%
COc1ccc(-c2nc3c4ccccc4n(CC(=O)N4CCN(c5ccc(F)cc5)CC4)c(=O)n3n2)cc1	9%
Fc1ccc(N2CCN(/C=C/c3nnnn3-c3ccccc3)CC2)cc1	-2%
Additional structures follow:
SMILES	VDR inh
O=C(Nc1c[nH]c(=O)[nH]c1=O)c1ccccc1Cl	-6%
O=[N+]([O-])c1cc(-c2ncccn2)cs1	1%
CCCC(=N)C1=C(O)CC(CC(C)SCC)CC1=O (stereo unspecified)	11%
COCCCNC(=S)Nc1ccc(S(=O)(=O)Nc2cc(OC)nc(OC)n2)cc1	-15%
COc1ccc(-n2c(SCC(=O)Nc3ccc(C)cc3)nc(O)c(Cc3ccccc3)c2=O)cc1	5%
CCc1cc2c(=O)oc(-c3ccccc3F)nc2s1	-6%
COc1ccc(Cl)cc1NS(=O)(=O)c1ccc2[nH]c3c(c2c1)CCCC3	11%
Cc1ccc(C(=O)OC2CCN(c3ccc([N+](=O)[O-])cc3)CC2)cc1	35%
COc1ccc(Cl)cc1C(=O)Nc1ccccc1N1CCCCC1	-15%
Cc1c(Cl)cccc1NC(=O)CC1SCCNC1=O (stereo unspecified)	0%
Cc1ccc(S(=O)(=O)N2CCN(C(=O)COC(=O)c3ccccc3OC(F)F)CC2)c(C)c1	0%
O=C(Nc1ccc(N2CCOCC2)cc1)c1cccc(S(=O)(=O)N2CCCCC2)c1	-12%
Cc1ccc(NC(=O)N2CCCC2C(=O)NCCc2ccccc2)cc1 (stereo unspecified)	10%
COC(=O)c1cnn2c(C)c(Cc3cccc(F)c3)c(C)nc12	-20%
Cc1cc(OC(C)C(=O)NC2CC(C)(C)NC(C)(C)C2)c2c(C)cc(=O)oc2c1 (stereo unspecified)	-9%

3 entries already listed, ordered by the value under VDR inh, ascending:
mol | VDR inh
COC(=O)c1cnn2c(C)c(Cc3cccc(F)c3)c(C)nc12 | -20%
COc1ccc(Cl)cc1C(=O)Nc1ccccc1N1CCCCC1 | -15%
CCc1cc2c(=O)oc(-c3ccccc3F)nc2s1 | -6%

(continued)
SMILES	VDR inh
c1ccc(-c2ncc(CN3CCN(c4ccccn4)CC3)[nH]2)cc1	-17%
CC(CNC(=O)c1ccccc1Cl)c1ccccc1 (stereo unspecified)	-22%
CCN(C(=O)COC(=O)CNC(=O)c1ccc(C)c(C)c1)C1CCS(=O)(=O)C1 (stereo unspecified)	-11%
CCCCC1(C)OC(=O)C(=Cc2ccc(N(C)C)cc2)C(=O)O1 (stereo unspecified)	?
COC(=O)c1ccc(CSc2nc3ccncc3n2Cc2ccc(F)cc2)cc1	1%
Cn1cnnc1SCCNS(=O)(=O)c1cccc([N+](=O)[O-])c1	4%
COCCn1c(C)cc(C(=O)COC(=O)c2ccc(S(=O)(=O)N(C)C)cc2)c1C	9%
COc1ccc(C2c3[nH]c4ccccc4c3C[C@H]3C(=O)N(C)CC(=O)N23)cc1OC (stereo partly specified)	1%
C/[N+]([O-])=C\c1cccc(OCCN2CCN(c3ncc(C(F)(F)F)cc3Cl)CC2)c1	-3%
CCCn1nc(-c2nnc(-c3ccc(C)c(C)c3)o2)c2ccccc2c1=O	1%
CCCCc1nc2sc3c(SCCN(C)C)ncnc3c2c2c1CCC2	?
CCOc1ccc(NC(=O)NC2CCCCCCC2)cc1	15%
CCC(=O)Nc1cccc(NC(=S)NC(=O)c2ccc(Cl)cc2Cl)c1	-9%
CCOc1cc(/C=N/NC(N)=O)cc(Br)c1OCC(=O)Nc1ccccc1C	-6%
COC(=O)CCCCC(=O)C1C(=O)CC(C)(C)C(C(=O)OC)C1=O (stereo unspecified)	10%
O=c1/c(=C/c2ccc(CNS(=O)(=O)c3ccccc3)o2)sc2n1CCN=2	3%
CN(C)C(=O)N1CCN(C(=O)c2ccccc2Sc2ccccc2C#N)CC1	15%
OCCC#Cc1ccc(CN2CCN(Cc3ccsc3)C(CCO)C2)cc1 (stereo unspecified)	2%
CC(=O)Nc1ccc(NC(=O)Nc2ccc(C)cc2C)cc1	-8%
CCOC(=O)Cn1c2ccc(OC)cc2c2nc3ccccc3nc21	-4%
COc1cccc(OC)c1C(=O)OCC(=O)N1CC(C)CC(C)C1 (stereo unspecified)	0%
COCCSc1ccccc1C(=O)Nc1ccc([N+](=O)[O-])cc1OC	4%
CC[C@H](C)[C@H](NC(=O)[C@H](CCC(=O)O)NC(=O)[C@@H](N)CO)C(=O)N[C@@H](CCC(N)=O)C(=O)N[C@@H](CC(C)C)C(=O)N[C@@H](CCSC)C(=O)N[C@@H](Cc1cnc[nH]1)C(=O)N[C@@H](CC(N)=O)C(=O)N[C@@H](CC(C)C)C(=O)NCC(=O)N[C@@H](CCCCN)C(=O)N[C@@H](Cc1cnc[nH]1)C(=O)N[C@@H](CC(C)C)C(=O)N[C@@H](C)C(=O)N[C@@H](CO)C(=O)N[C@H](C(=O)N[C@@H](CCC(=O)O)C(=O)N[C@@H](CCCNC(=N)N)C(=O)N[C@@H](CCSC)C(=O)N[C@@H](CCC(N)=O)C(=O)N[C@@H](Cc1c[nH]c2ccccc12)C(=O)N[C@@H](CC(C)C)C(=O)N[C@@H](CCCNC(=N)N)C(=O)N[C@@H](CCCCN)C(=O)N[C@@H](CCCCN)C(=O)N[C@@H](CC(C)C)C(=O)N[C@@H](CCC(N)=O)C(=O)N[C@@H](CC(=O)O)C(=O)N[C@H](C(=O)N[C@@H](Cc1cnc[nH]1)C(=O)N[C@@H](CC(N)=O)C(=O)N[C@@H](Cc1ccccc1)C(=O)O)C(C)C)C(C)C	7%
S=C(Nc1ccccc1Cl)NC1CCC(NC(=S)Nc2ccccc2Cl)CC1 (stereo unspecified)	-7%
O=C(Cc1ccc(Cl)cc1)Nc1ccccc1N1CCN(C(=O)c2ccccc2)CC1	0%
Cc1ccc(C)c(-n2cc(-c3ccccc3)nc2SCC(=O)Nc2ccccc2)c1	18%
COc1ccc(NC(=O)CSc2nccn2Cc2ccccc2)cc1	-2%
COc1cc2cc(C(c3nnnn3Cc3ccc(F)cc3)N3CCCCCC3)c(=O)[nH]c2cc1OC (stereo unspecified)	-9%
COc1cccc(CC(=O)OCC(=O)Nc2c(C)nn(-c3ccccc3)c2C)c1	-10%
O=C(NCC(=O)N1CCC2(CC1)NCCc1[nH]cnc12)c1ccc(Br)cc1	5%
CCc1ccccc1Nc1nc2ccccc2n1C(C)C	17%
COc1ccc(CNC(=O)OCCN2CCN(S(=O)(=O)c3ccc(C)cc3)CCC2=O)cc1	-20%
COC/C=C/C1=CC2=CC(=O)C(C)(OC(=O)c3cnc4ccccc4n3)C(=O)C2=CN1CC(C)C (stereo unspecified)	-29%
c1ccc(-c2n[nH]c(-c3ccccn3)n2)cc1	0%
CC(C)(C)c1ccc(C(=O)Nc2ccc(NC(=O)c3ccco3)cc2)cc1	11%
Cc1nc(C)c(C(=O)NNS(=O)(=O)c2ccc([N+](=O)[O-])cc2)s1	-6%
O=C(N/N=C/C(Br)=C/c1ccccc1)c1cccs1	0%

By substructure, the entries above containing an aryl thioether with sulfur outside any ring (13)
SMILES	VDR inh
CCc1nnc(NC(=O)CCCSc2nc3ccccc3[nH]2)s1	9%
Cc1cc(C)n2nc(SC(C)C(=O)N3CC(C)OC(C)C3)nc2n1 (stereo unspecified)	-15%
CCCn1c(SCC(=O)N2CCCC2=O)nc2ccccc2c1=O	-22%
Cc1ccnc(SCc2cn3c(C)cccc3n2)n1	2%
Cn1c(SCC(=O)NC2CCCCC2)nnc1-c1ccccc1O	14%
COc1ccc(-n2c(SCC(=O)Nc3ccc(C)cc3)nc(O)c(Cc3ccccc3)c2=O)cc1	5%
COC(=O)c1ccc(CSc2nc3ccncc3n2Cc2ccc(F)cc2)cc1	1%
Cn1cnnc1SCCNS(=O)(=O)c1cccc([N+](=O)[O-])c1	4%
CCCCc1nc2sc3c(SCCN(C)C)ncnc3c2c2c1CCC2	?
CN(C)C(=O)N1CCN(C(=O)c2ccccc2Sc2ccccc2C#N)CC1	15%
COCCSc1ccccc1C(=O)Nc1ccc([N+](=O)[O-])cc1OC	4%
Cc1ccc(C)c(-n2cc(-c3ccccc3)nc2SCC(=O)Nc2ccccc2)c1	18%
COc1ccc(NC(=O)CSc2nccn2Cc2ccccc2)cc1	-2%

Some of the compounds tested, so the mix of outcomes need not match the whole.
